Assay outcomes from PubChem.
A1 inh = inhibitors of the anti-apoptotic protein A1, read as caspase activation; caspase activation, % (no concentration beside the values); 330,000 tested, 0.066% active; AID 2462; MEF A1-2A-BIM cells, Caspase-Glo 3/7 luminescence, 3 h; percent of clofoctol response, vehicle zero;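 active means over half of replicate activation scores above 10%, or exactly half above 10 with the replicate mean above 10; inconclusive means replicate mean below 10 yet half the replicates above 10; inactive means over half of replicates below 10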;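 further: wells of about 30 µL received 50 nL stock; many hits fall short of the cut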
T cruzi inh = blocks replication of Trypanosoma cruzi; T. cruzi beta-gal in NIH3T3, luminescence, 90 h; inhibition, % (test concentration not listed); 300,000 tested, 1.4% active; AID 1885;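 active means mean inhibition across valid replicates above about 55%, limit read from the data; inconclusive means mean below that limit but half or more replicates reach it; inactive means mean below it, under half of replicates reach it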;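 further: signal also drops with host cell toxicity which is not excluded here; 0% = plate median of DMSO wells and 100% = zero luminescence signal; higher percent means less beta-gal luminescence so fewer parasites; stock transfer was 50 nL into about 50 µL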
Vif A3G = inhibitors of Vif binding to APOBEC3G peptide, primary screen, biochemical, TR-FRET, GST-Vif 1-94, biotin-A3G peptide, dose response retest (AID 1117319). TR-FRET GST-Vif / biotin-A3G peptide binding; higher % means a stronger effect; test concentration not given here; strong numbers were not always called active. inhibition, %; hits with a dose series show IC50 in µM. 260,000 tested, 0.57% active;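 active means above the screen mean plus three standard deviations and confirmed in dose response; inconclusive means results disagree or hit not tested in dose response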;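 further: Vif residues 1-94 fused to GST binding biotinylated APOBEC3G peptide 110-148; 0% = full assay without inhibitor and 100% = GST in place of GST-Vif; retest series ran down from 100 µM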
Calb FLC = C. albicans growth modulation with fluconazole; C. albicans CaCi-2 (fluconazole-resistant clinical isolate) + fluconazole, Alamar Blue growth, 48 h; growth inhibition, % (no concentration beside the values); 300,000 tested, 0.57% active;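 active means most replicates above 75%; inconclusive means exactly half above 75%; inactive means most below 75%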;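 further: all wells also contain fluconazole at 8 µg/ml as a sub-toxic cotreatment; 0% = median of DMSO wells and 100% = median of geldanamycin control wells; wells of about 8 µL received 7.5 nL stock; the first replicate is given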
Beta cell apopt = blocks beta cell apoptosis; INS-1E cytokine-induced death, ATP luminescence, 48 h; percent of positive-control rescue, neutral wells zero; protection from apoptosis, % (no concentration beside the values); 300,000 tested, 0.8% active; AID 435005;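 active means all replicates at 75% or more, or half of them and the mean; inconclusive means half reach 75% but not the mean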;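 further: 0% = cytokine-treated negative control wells and 100% = positive control rescue; higher means more ATP so stronger rescue from cytokine killing; wells of about 40 µL received 100 nL stock; the first replicate is given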
LANA-H2A inh = blocks KSHV LANA binding to histone H2A/H2B; cell-free LANA-H2A/H2B peptide, fluorescence polarization; inhibition, % (no concentration beside the values); 320,000 tested, 0.6% active; in the data active means inhibition mostly above about 10%, no sharp cut-off; inactive means mostly below about 6.7%;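 further: stock transfer was 7.5 nL into about 10 µL; 0% = median of vehicle wells and 100% = median of positive control wells; one replicate is shown; the record names a cut of 25% in any replicate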
Target sequence (Q9QR71 whole entry, looked up): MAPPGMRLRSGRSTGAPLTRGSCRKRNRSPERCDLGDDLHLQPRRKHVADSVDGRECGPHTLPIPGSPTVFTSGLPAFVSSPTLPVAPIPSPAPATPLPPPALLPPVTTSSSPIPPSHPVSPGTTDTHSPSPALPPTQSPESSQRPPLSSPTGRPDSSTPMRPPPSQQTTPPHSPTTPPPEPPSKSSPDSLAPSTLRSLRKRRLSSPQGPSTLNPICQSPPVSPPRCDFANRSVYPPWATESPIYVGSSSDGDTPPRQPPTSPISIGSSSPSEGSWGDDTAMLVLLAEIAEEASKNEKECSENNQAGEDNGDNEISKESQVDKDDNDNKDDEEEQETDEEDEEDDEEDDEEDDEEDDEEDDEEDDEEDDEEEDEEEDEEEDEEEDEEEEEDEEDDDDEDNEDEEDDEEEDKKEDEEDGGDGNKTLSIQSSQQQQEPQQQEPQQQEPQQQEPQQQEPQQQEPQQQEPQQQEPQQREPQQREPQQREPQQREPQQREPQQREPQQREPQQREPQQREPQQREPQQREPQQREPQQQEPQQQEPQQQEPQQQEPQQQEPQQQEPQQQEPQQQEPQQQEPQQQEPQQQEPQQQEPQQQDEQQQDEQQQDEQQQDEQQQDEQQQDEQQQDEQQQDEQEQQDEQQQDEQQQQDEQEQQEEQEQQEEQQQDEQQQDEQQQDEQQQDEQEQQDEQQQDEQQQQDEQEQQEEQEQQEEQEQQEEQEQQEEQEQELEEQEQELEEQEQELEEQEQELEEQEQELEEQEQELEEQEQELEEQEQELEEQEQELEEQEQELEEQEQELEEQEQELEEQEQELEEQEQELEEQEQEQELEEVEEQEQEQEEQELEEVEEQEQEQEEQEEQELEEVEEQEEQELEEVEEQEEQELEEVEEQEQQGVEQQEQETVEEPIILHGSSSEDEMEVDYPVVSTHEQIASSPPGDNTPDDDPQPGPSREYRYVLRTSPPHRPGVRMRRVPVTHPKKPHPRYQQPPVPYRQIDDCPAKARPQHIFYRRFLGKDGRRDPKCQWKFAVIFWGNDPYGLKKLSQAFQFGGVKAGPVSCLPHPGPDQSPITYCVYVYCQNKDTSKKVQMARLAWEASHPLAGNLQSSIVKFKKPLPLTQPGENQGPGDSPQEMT
RanGTP-Imp inh = disruptors of Ran-importin-beta complex formation – biochemical, FRET, CFP-Ran, YFP-importin-beta, homogeneous, primary screen; 300,000 tested, 1.1% active; cell-free CFP-Ran/YFP-importin-beta FRET ratio; inhibition, % (no concentration beside the values);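 active means most replicates above 15%; inconclusive means exactly half above 15%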;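 further: 0% = DMSO wells and 100% = Ran loaded with GDP instead of GTP; wells of about 40 µL received 100 nL stock; the first replicate is given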
AF4-AF9 inh = MLL-AF4/AF9 protein interaction inhibition | P42568 | AlphaScreen, biotin-AF4 peptide binding to FLAG-AF9 | inhibition, % at 10 µM | 350,000 tested, 0.47% active | AID 651704;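 active means every replicate reaching a set inhibition limit, whatever the replicate mean, cut at about 25% in these data; inconclusive means mean inhibition reaches that limit but some replicates miss it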;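 further: 0% = plate neutral control median and 100% = total signal loss; the record names both 10 and 1 µM as test concentration; the first replicate is given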
Starred values were filed as active, the others as inactive; ? = inconclusive; · = no result given.

SMILES | A1 inh | T cruzi inh | Vif A3G | Calb FLC | Beta cell apopt | LANA-H2A inh | RanGTP-Imp inh | AF4-AF9 inh
CCCCCN(C(=O)CCC(=O)OCC(=O)N(CC)C1CCCCC1)c1c(N)n(CCCC)c(=O)[nH]c1=O | -0.1 | -5.6 | -4.5% | 2.3 | -6.0 | -2.3 | 3.0 | 0.0
CCn1c(O)c(N=N)c2ccccc21 | 0.1 | -4.6 | -7.2% | -10.4 | 2.0 | 9.8 | ? | -2.3
COC(=O)/C=C1/SC(=NC(=O)c2ccccc2)NC1=O | -1.7 | -5.5 | -0.4% | 11.2 | -7.4 | -0.4 | -1.2 | -0.5
COc1ccc(NC(=O)c2cc(C)nc3ccccc23)cc1S(=O)(=O)Nc1ccccc1Cl | 0.1 | -12.0 | -2.5% | -45.9 | 3.8 | -3.3 | 0.2 | 1.4
CCCC(=O)Nc1ccc(S(=O)(=O)N2CCOCC2)cc1 | -0.4 | -17.0 | · | -1.8 | · | 7.8 | 1.2 | 13.9
CCn1cc(CNC(=O)c2cccc([N+](=O)[O-])c2)c(C)n1 | 0.0 | -6.0 | · | 2.1 | 1.1 | 0.9 | 4.3 | ·
COCCCN1C(=O)C(O)=C(C(=O)c2ccco2)C1c1cccc(Br)c1 (stereo not given) | 1.3 | -5.3 | -4.5% | 21.3 | 3.1 | -2.2 | -0.5 | ·
COC(=O)Nc1ncc(CN2C(=O)c3ccccc3C2=O)s1 | 0.1 | -6.1 | -3.0% | -19.5 | -1.5 | -1.8 | -0.3 | ·
COc1ccc(N(C(=O)c2ccc(Cl)cc2)C2=CC3CCC(C2)N3C)cc1 (stereo not given) | 0.3 | 3.7 | 5.7% | 1.2 | -0.9 | -1.2 | -1.3 | ·
CSc1nc(C)c(CCOCc2ccc(F)cc2)c(=O)[nH]1 | -0.2 | 23.0 | -3.0% | -5.8 | -4.9 | -2.2 | -2.5 | -1.2
NS(=O)(=O)c1ccc(N2C(=O)C(=O)/C(=C(/O)c3ccccc3)C2c2ccc(Cl)cc2)cc1 (stereo not given) | 1.7 | 1.6 | 9.1% | -7.1 | 0.7 | -4.7 | -3.7 | 2.2
COc1ccccc1NC(=O)NCCN1CCCCC1 | 1.6 | 1.2 | · | 0.5 | -5.3 | -1.9 | 0.5 | 4.6
Cc1ccc(NC(=O)CSc2n[nH]c(-c3cccnc3)n2)c(Br)c1 | 0.1 | -14.2 | · | -4.7 | -3.4 | -0.4 | 6.4 | 0.3
COCCNC(=O)C(c1ccc(F)cc1)N(Cc1cccs1)C(=O)CCC(=O)Nc1ccccn1 (stereo not given) | 0.3 | 2.1 | · | 16.7 | -0.8 | -2.7 | -0.1 | 2.8
Cc1csc(=O)n1CC(=O)Nc1nc2ccccc2s1 | 0.2 | · | · | · | -7.3 | 0.4 | · | -9.4
CC(C)(C)C(=O)CSc1nnc(Nc2ccccc2)s1 | -1.2 | 1.8 | 5.1% | 8.4 | 1.7 | 2.5 | -0.9 | 2.2
O=C(/C=C/c1ccccc1)Nc1cc(C(=O)O)cc(C(=O)O)c1 | -0.3 | -29.3 | -7.3% | 20.5 | -2.9 | 7.6 | 2.0 | 0.1
O=C1CC(c2cccc(Cl)c2)CC(O)=C1C=Nc1cccc(Cl)c1 (stereo not given) | 0.8 | 2.2 | -1.0% | -5.1 | -5.2 | -1.5 | -1.6 | ·
O=C(CSc1cccc[n+]1[O-])c1ccc(Cl)cc1 | -0.5 | -14.0 | 0.1% | 12.8 | -2.5 | 8.1 | 5.5 | -0.8
Cc1nonc1NC(=O)CSc1nc2ccccc2[nH]1 | 0.1 | -19.4 | -2.0% | -6.7 | 0.9 | 1.6 | -2.4 | 1.3
CC(C)(C)C1COc2ccccc2N1C(=O)c1cccc(Cl)c1 (stereo not given) | 0.3 | 15.6 | 1.0% | 12.7 | -2.7 | -2.7 | 0.4 | -3.9
COc1cc2nc(C3CCC3)nc(N3CCN(c4ccccc4OC)CC3)c2cc1OC | -0.4 | 30.7 | 1.0% | -1.8 | 9.5 | 2.3 | -0.3 | 8.8
CCCc1cc2c(c(NC(C)=O)n1)c(=O)oc1ccccc12 | · | -9.1 | 2.8% | 27.7 | · | · | 1.2 | ·
CCOC(=O)c1sc(NC(=O)c2cc(-c3cccc(O)c3)on2)c(C(=O)OCC)c1C | 0.2 | -15.1 | 30.6% | 2.0 | · | -1.4 | ? | 6.2
COCCNC(=S)NN=C1CCCCCC1 | · | -9.2 | · | -5.1 | · | · | -0.4 | -2.6
Cc1cc2c(c(=O)o1)C(C13C=CC(CC1)C3)C(C#N)=C(N)O2 (stereo not given) | 0.1 | -5.2 | ? | 2.6 | -1.8 | 5.8 | 0.9 | ·
COC(=O)c1cc2n(n1)CCCNC2=O | -0.3 | -8.6 | · | -12.9 | -1.3 | 2.7 | -0.3 | -1.2
CC(C)S(=O)(=O)c1csc(NC(=O)Nc2cccc([N+](=O)[O-])c2)c1Cl | -0.8 | 11.5 | · | -11.2 | 12.2 | 7.4 | -0.4 | -0.8
O=C(NNC(=O)c1ccccc1OCc1ccccc1)c1ccccc1F | -2.5 | -6.1 | -0.5% | · | 4.9 | -5.8 | 1.3 | 1.1
Cn1nc(C(F)(F)F)c2cc(C(=O)Nc3ccc(F)cc3)sc21 | 2.0 | 9.9 | -14.5% | -1.6 | 6.6 | -11.4 | 0.0 | -3.7
CCOC(=O)Cc1cc(=O)[nH]c(/N=C(\N)Nc2ccc(C)cc2C)n1 | · | -32.9 | 5.2% | -1.6 | -4.6 | 2.5 | -2.2 | ·
CCCCN(C)/C=N/c1c(C#N)cnn1-c1ccc(C)cc1 | 0.8 | 12.8 | 13.7% | -1.6 | 1.6 | 3.8 | 3.7 | ·
CC1(C)CC2(CCO1)N1CC3(C)CN2CC(C)(C1)C3O (stereo not given) | -0.7 | 4.6 | 1.4% | -1.6 | -3.0 | -0.5 | 1.5 | ·
CC(C)c1ccc(NC2=NCC(=O)N2Cc2cccs2)cc1 | -0.5 | 2.1 | -2.0% | ? | 4.3 | -0.5 | -2.8 | 0.9
Cc1ccc(C)c(OCCC(=O)OCC(=O)N2CCN(S(=O)(=O)c3ccc(Cl)cc3)CC2)c1 | 0.3 | -5.3 | · | 6.9 | -16.2 | 2.8 | -2.8 | -0.1
CC(=O)Nc1ccc(NCN2C(=O)[C@@H]3[C@H]4CC[C@H](C4)[C@@H]3C2=O)cc1 | 0.1 | -9.7 | -1.9% | 4.1 | -9.7 | -4.6 | 0.7 | ·
CNC(=O)c1nc(C)n(-c2ccc(Cl)cc2Cl)n1 | 0.1 | -1.5 | -9.1% | -6.9 | -3.5 | 2.1 | 3.6 | -0.9
CCc1nnc(SCC(=O)Nc2ccc(N3CCOCC3)cc2)n1C | 0.0 | -24.7 | · | 0.0 | 0.1 | -2.8 | -0.7 | -1.8
O=C(Nc1ccccc1)NC1CCS(=O)(=O)C1 (stereo not given) | 0.5 | 2.3 | 24.2% | -3.2 | 2.8 | 8.6 | ? | ·
O=C(NCc1ccco1)C1CC(c2cccc([N+](=O)[O-])c2)=NO1 (stereo not given) | -0.1 | 1.1 | 8.9% | -11.5 | -8.5 | -1.9 | 0.5 | 4.1
CN(C)CCCNC(=S)N(CCCN(C)C)Cc1cc2cc3c(cc2[nH]c1=O)OCO3 | 1.9 | -6.7 | · | 0.3 | -1.3 | 19.9* | -3.6 | 2.8
COc1ccc(C(C)=O)cc1COC(=O)c1c(C)nn(-c2ccccc2)c1C | 2.4 | 12.3 | -3.9% | 7.3 | 3.5 | -0.3 | -0.7 | -3.7
CC(C)Cc1nc(Cl)c(C#N)c2c1CCCC2 | -0.9 | -7.5 | -0.7% | ? | 2.3 | 2.9 | 7.3 | -1.0
O=C1c2ccccc2C(=O)N1Cc1nn2c(-c3ccc(Cl)cc3)nnc2s1 | 1.4 | 7.4 | · | -1.9 | · | 4.6 | 2.9 | ·
CCOc1ccc(NC(=O)c2ccc(N3CC4CC(C3)c3cccc(=O)n3C4)c(NC(=O)c3ccncc3)c2)cc1 (stereo not given) | -0.3 | 2.4 | · | 0.2 | 5.1 | -1.8 | -1.2 | -4.5
Cc1ccc(NC(=O)Cc2ccc3c(c2)OCCO3)cc1S(=O)(=O)N1CCCCC1 | 0.1 | -3.8 | 17.6% | -4.5 | 2.6 | -2.1 | 5.5 | 7.3
O=C(Nc1cc2c(oc1=O)CCCC2=O)c1ccccc1 | -1.1 | -0.7 | 3.4% | 16.5 | -4.5 | -3.9 | -1.5 | ·
O=C(O)CCCNC(=O)c1ccc(NC(=O)Cc2ccc(Cl)cc2)cc1 | 0.7 | -1.3 | 2.5% | 5.3 | · | -1.6 | 4.8 | 0.0
O=C1CC(c2ccco2)CC(O)=C1C=Nc1ccc(Br)cc1 (stereo not given) | 0.3 | -10.5 | >100µM* | -16.8 | -7.4 | -8.2 | 1.7 | ·
COc1ccc(NC(=O)CN(C)C(=O)C(Sc2ccccc2)c2ccccc2)cc1 (stereo not given) | 0.3 | · | 7.6% | · | 0.4 | 60.0* | · | 1.3
COc1ccccc1C(OC(=O)c1ccco1)C(=O)NCc1ccc(F)cc1 (stereo not given) | -0.9 | -2.7 | · | -0.1 | -4.1 | -1.3 | 0.2 | 2.8
CC(=O)CSc1nc2ccccc2s1 | -1.6 | -6.3 | 13.3% | 19.2 | -3.2 | 0.2 | -2.8 | ·
CC(C)CC1NC(=O)N(CC(=O)Nc2cc(S(=O)(=O)N3CCOCC3)ccc2Cl)C1=O (stereo not given) | 0.3 | · | · | · | 0.0 | -4.0 | · | -2.0
CCN(CC(=O)Nc1cc(Cl)ccc1C)C(=O)c1ccc2c(=O)n3c(nc2c1)CCC3 | 0.5 | -7.1 | 2.7% | -6.5 | 0.0 | -1.1 | · | 0.8
O=C(O)CCNS(=O)(=O)c1ccc2c(c1)CCCC2 | 0.9 | -11.0 | -5.4% | -2.7 | -7.5 | 3.4 | 0.9 | -3.4
COc1ccc(-c2nnn(CC(=O)NCc3ccccc3)n2)cc1OC | -0.3 | 5.7 | 23.3% | -3.3 | · | 2.5 | 0.0 | ·
CSc1sc(C(=O)OC(C)C)c2c1C(=O)CC(C)(C)C2 | 0.8 | 5.8 | -11.2% | ? | -0.9 | -1.3 | 5.8 | -1.6
CCn1c(C(=O)N2CCc3ccccc3C2)cc2oc3ccccc3c21 | 0.2 | 4.5 | -3.5% | 13.4 | -10.4 | -1.1 | 2.0 | ·
COc1ccc(CNC(=O)CN2C(=O)NC(C)(c3ccc(Cl)cc3)C2=O)cc1 (stereo not given) | 0.6 | -2.6 | -5.2% | 4.8 | -1.8 | 2.5 | 4.7 | -0.8
Cn1cnnc1SCC(=O)Nc1ccc(OC(F)F)cc1 | 1.4 | -11.0 | -4.3% | -21.5 | · | -2.3 | 1.8 | 0.0
O=C(NCCCN1CCOCC1)C(=O)N/N=C/c1ccc2c(c1)OCO2 | 0.1 | 14.2 | 16.1% | -0.4 | -4.2 | 0.2 | -4.1 | -0.5
CCc1noc(C)c1C(=O)N(CC)CC(=O)NCc1ccc(Cl)cc1 | 3.5 | · | 15.3% | · | -1.9 | -4.0 | · | -0.9
